Compound activity as filed in PubChem BioAssay.
RanGTP-Imp inh – disruptors of Ran-importin-beta complex formation – biochemical, FRET, CFP-Ran, YFP-importin-beta, homogeneous, primary screen. cell-free CFP-Ran/YFP-importin-beta FRET ratio. inhibition, % (test concentration not listed). hit rate 1.1% among 300,000;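 active means most replicates above 15%; inconclusive means exactly half above 15%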;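 further: 0% = DMSO wells and 100% = Ran loaded with GDP instead of GTP; wells of about 40 µL received 100 nL stock; the first replicate is given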
MLL AF4-AF9 inh – MLL-AF4/AF9 protein interaction inhibition | P42568 | inhibition, % at 10 µM | hit rate 0.47% among 350,000 | AlphaScreen, biotin-AF4 peptide binding to FLAG-AF9;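 active means every replicate reaching a set inhibition limit, whatever the replicate mean, cut at about 25% in these data; inconclusive means mean inhibition reaches that limit but some replicates miss it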;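 further: 0% = plate neutral control median and 100% = total signal loss; the record names both 10 and 1 µM as test concentration; the first replicate is given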
UCH37 inh – blocks the human deubiquitinase UCH37 | hit rate 0.33% among 330,000 | purified proteasome/UCH37, Ub-AMC cleavage fluorescence | AID 588478 | inhibition, % (no concentration beside the values) | Q9Y5K5;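 active means mean of two replicates above 20%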;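 further: 0% = compound-free wells with enzyme and 100% = wells lacking proteasome; stock transfer was 100 nL into about 20 µL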
Target sequence (Q9Y5K5 whole entry, looked up): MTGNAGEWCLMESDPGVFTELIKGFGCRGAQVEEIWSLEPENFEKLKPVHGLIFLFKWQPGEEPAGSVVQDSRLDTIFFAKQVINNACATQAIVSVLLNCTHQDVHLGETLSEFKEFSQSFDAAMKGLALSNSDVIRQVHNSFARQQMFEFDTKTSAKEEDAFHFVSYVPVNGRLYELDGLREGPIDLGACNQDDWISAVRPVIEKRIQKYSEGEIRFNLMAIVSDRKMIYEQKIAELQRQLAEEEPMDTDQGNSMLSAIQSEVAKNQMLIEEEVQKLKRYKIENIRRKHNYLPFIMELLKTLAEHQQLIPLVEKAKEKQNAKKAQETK
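Material: Human UCH37 enzyme supplied as purified proteasome complex | Schedule: 30 min compound-proteasome preincubation then 25 min substrate reaction, room temperature | Detection: AMC fluorescence from Ub-AMC cleavage, excitation 355 nm, emission 460 nm | Benchmarks: Wells without proteasome as full block, compound-free enzyme plus substrate as uninhibited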
HNF4A DNA FP – change in binding of human HNF4 alpha to DNA; activity change, % at 10 µM; P41235; HNF4a-FITC DNA binding, fluorescence polarization, 1 h; AID 1224865; hit rate 0.3% among 360,000; in the data active means activity change above about 30%, passing the limit was not always enough;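 further: controls were the assay level and a saturating level of protein; the project sought stronger binding though the title names inhibitors; some compounds called inactive have numbers as strong as hits; positive values seem to mean higher polarization but the record does not say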
Target sequence (P41235 whole entry, looked up): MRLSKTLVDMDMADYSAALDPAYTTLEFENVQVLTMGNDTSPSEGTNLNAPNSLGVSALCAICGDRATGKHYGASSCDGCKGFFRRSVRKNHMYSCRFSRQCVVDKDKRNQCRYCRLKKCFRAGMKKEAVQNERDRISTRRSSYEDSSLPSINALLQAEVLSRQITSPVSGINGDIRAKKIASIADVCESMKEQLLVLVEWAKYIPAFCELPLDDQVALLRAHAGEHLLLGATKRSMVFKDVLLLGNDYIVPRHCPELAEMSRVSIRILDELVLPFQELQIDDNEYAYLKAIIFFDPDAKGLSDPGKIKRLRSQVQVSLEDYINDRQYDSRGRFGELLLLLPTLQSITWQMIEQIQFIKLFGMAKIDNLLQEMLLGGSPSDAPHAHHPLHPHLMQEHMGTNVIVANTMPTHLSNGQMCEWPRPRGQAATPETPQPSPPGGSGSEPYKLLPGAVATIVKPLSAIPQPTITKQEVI
Vif TR-FRET – inhibitors of Vif binding to APOBEC3G peptide, primary screen, biochemical, TR-FRET, GST-Vif 1-94, biotin-A3G peptide, dose response retest (AID 1117319); TR-FRET GST-Vif / biotin-A3G peptide binding; higher % means a stronger effect; test concentration not given here; strong numbers were not always called active; inhibition, %, or IC50 in µM where a hit was titrated; hit rate 0.57% among 260,000;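 active means above the screen mean plus three standard deviations and confirmed in dose response; inconclusive means results disagree or hit not tested in dose response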;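 further: Vif residues 1-94 fused to GST binding biotinylated APOBEC3G peptide 110-148; 0% = full assay without inhibitor and 100% = GST in place of GST-Vif; retest series ran down from 100 µM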
FGF22 binding – FGF22 (human) thermal shift binding. Q9HCT0. recombinant FGF22 thermal shift, SYPRO orange fluorescence; percent of sucrose octasulfate shift, DMSO zero. calls only at 9.99 µM. hit rate 1.5% among 340,000. AID 651658;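 active means melting point raised past a set limit in the mean and every replicate; inconclusive means no clear call; three in four hits are not shown here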
Target sequence (Q9HCT0 whole entry, looked up): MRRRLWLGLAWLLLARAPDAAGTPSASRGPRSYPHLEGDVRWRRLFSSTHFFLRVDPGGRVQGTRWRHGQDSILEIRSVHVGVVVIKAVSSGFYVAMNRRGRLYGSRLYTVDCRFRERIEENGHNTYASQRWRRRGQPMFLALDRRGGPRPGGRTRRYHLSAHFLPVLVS
Ecoli growth – inhibitors of Escherichia coli growth. hit rate 0.21% among 330,000. OD600 absorbance (test concentration not listed). OD600, 23 h; hits give low values;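 active means OD600 absorbance below the run mean of sample wells minus 3.6 SD, in any replicate, cut at about 0.56 in these data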;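 further: stock transfer was 300 nL into about 60 µL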
The depositor's hits bear a star; i = inactive; ? = inconclusive; / = no result given; & = joins results of further samples. Only part of the results is shown; rates above refer to the full screens.

SMILES	RanGTP-Imp inh	MLL AF4-AF9 inh	UCH37 inh	HNF4A DNA FP	Vif TR-FRET	FGF22 binding	Ecoli growth
Cc1ccc2c(c1)N(CC(=O)NCCc1ccc(Cl)cc1)C(=O)c1cccnc1O2	0.1	0.6	7.5	1.6	-2%	i	0.75
C=C(C)Cn1c(C)cc(C)c(S(=O)(=O)c2ccc(C)cc2)c1=O	-1.1	-1.9	6.2	-1.6	20%	i	0.68
COc1ccccc1N1CCN(C(c2cccs2)C(C)NS(=O)(=O)c2ccccc2)CC1 (stereo not given)	4.9	7.8	1.9	-4.3	4%	i	0.75
COc1cc(C(O)P(=O)(OC2CCCCC2)c2ccc(N(C)C)cc2)cc(OC)c1OC (stereo not given)	1.1	/	0.8	4.5	-4%	/	0.64
Cc1ccc(-n2c3nc(=O)[nH]c(=O)c-3cc3c(C)nn(-c4ccccc4)c32)c(C)c1	4.3	/	-368	0.6	-18%	/	/
CCOC(=O)N1CCN(S(=O)(=O)CCNC(=O)c2ccccc2)CC1	0.4	0.9	0.4	1.0	2%	i	0.68
CN(C)/C=C/C(=O)c1cccc([N+](=O)[O-])c1	-0.8	-10	14	-2.3	/	i	0.64
Cc1cc(=O)oc2c(C)c(OC(C)C(=O)NCC(O)c3ccccc3)ccc12 (stereo not given)	1.4	-1.3	/	0.7	/	i	/
CCOC(=O)c1c(CN2CCN(Cc3ccccc3)CC2)n(C)c2cc(Br)c(OC)cc12	-15	/	3.8	-0.1	-4%	/	0.72
OC(COc1ccc2c(c1)OCO2)CN1CCN(c2ccc(F)cc2)CC1 (stereo not given)	2.1	-1.8	1.2	0.3	/	i	0.62
CN1C(=O)C(C)(C)c2cc(S(=O)(=O)NCCc3ccc(Cl)cc3)ccc21	1.5	-3.4	3.1	0.7	2%	i	0.73
CS(=O)(=O)Oc1ccc(/C=C2\C(=N)N3N=C(CC(=O)N4CCOCC4)SC3=NC2=O)cc1Cl	4.3	-8.6	1.7	-3.9	/	i	0.72
Cc1sc(NC(=O)c2cc(-c3ccccc3)nc3ccccc23)c(C(N)=O)c1C	3.1	-12	-1.8	5.8	?	i	0.72
CN(CC(=O)N1CCCC1)S(=O)(=O)c1ccc2ccccc2c1	1.9	-9.4	/	-2.8	0%	i	/
CN(C)c1ccc(NC(=O)CSc2nc3c(c(=O)[nH]2)CCCC3)cc1	1.0	3.0	-0.2	-4.7	29%	i	0.71
CCOCCn1c(CN(Cc2ccccc2)Cc2ccccc2)nc2c1c(=O)n(C)c(=O)n2C	3.2	-3.3	1.4	0.6	11%	i	0.77
COc1cc(C)c(CN2CCN(c3ncccn3)CC2)cc1C	1.5	2.9	3.0	1.8	/	i	0.67
Cc1cc(C)c(-c2cc(C(=O)Nc3cc(C)ccc3C)[nH]n2)c(O)c1	3.1	7.7	1.9	-0.1	-6%	i	0.72
CCn1cc(S(=O)(=O)CC(=O)NC2CCCCC2)c2ccccc21	?	/	1.0	0.7	-3%	/	0.73
Cc1ccc(NC(=O)C(Cc2ccccc2)N2C(=O)C3C4CCC(C4)C3C2=O)cc1Cl (stereo not given)	-0.2	/	1.2	1.5	-1%	/	0.65
C#CCNC(=O)C[C@@H]1C[C@@]2(C(=O)OC)CCCCC=C2N(CCCCCCCC)C1=O	/	-4.1	/	-1.0	/	i	/
CC1(C(=O)NS(=O)(=O)c2cccc(F)c2)CCN1C(=O)C/C=C/c1ccccc1 (stereo not given)	/	-4.0	/	2.1	/	i	/
COc1ccnc2c1c(=O)n(Cc1ccc(Cl)cc1)c(=O)n2C	2.1	0.1	-5.9	0.9	/	i	0.7
O=C(CCC(=O)Nc1ccccc1Cl)NNC(=O)C1CCCCC1	/	1.0	3.8	7.0	-5%	i	0.7
CC(C)C(=O)Nc1cc2c3c(c1)CCC(=O)N3CCC2	0.5	-2.2	-1.4	0.4	2%	i	0.69

Further structures.
SMILES	RanGTP-Imp inh	MLL AF4-AF9 inh	UCH37 inh	HNF4A DNA FP	Vif TR-FRET	FGF22 binding	Ecoli growth
O=C(c1nc2ncccn2n1)N1CCc2ccccc2C1	4.5	/	-0.9	-0.1	-4%	/	0.73
COc1ccc(S(=O)(=O)N(C)c2ccc(OCC(=O)Nc3cc(C)on3)cc2)cc1	0.9	/	0.5	5.0	2%	/	0.69
O=C(COC(=O)c1cccc(F)c1)Nc1ccc2c(c1)OCCO2	/	1.8	2.2	0.2	/	i	0.69
COCCNC(=S)N/N=C/c1ccc2c(c1)OCCO2	-3.9	-7.0	/	2.0	/	i	/
COc1ccc(Oc2nc3c(C)cccn3c(=O)c2/C=C(\C#N)C(N)=O)cc1	22*	-6.0	-1.9	0.3	4%	i	0.7
COc1ccc2c(Cl)c(-c3nnc(SCC(N)=O)n3C)sc2c1	0.7	2.4	2.8	0.3	0%	i	0.73
Cc1cc(C)nc(NC(=O)c2c(C(=O)O)noc2C)n1	3.1	-2.8	0.2	-0.8	11%	i	0.68
O=C(CCl)Nc1cc(SCC(O)CO)cc([N+](=O)[O-])c1 (stereo not given)	-1.1	1.1	3.0	-0.7	?	/	0.62
O=C(O)c1ccc(Cl)c(S(=O)(=O)Nc2ccc(S(=O)(=O)Nc3cccc(Cl)c3)cc2)c1	-2.7	0.1	7.1	1.1	/	i	0.65
O=C(Nc1nc2ccccc2[nH]1)c1ccc(OC(F)F)cc1	-2.6	-1.3	5.7	-2.8	/	i	0.66
COc1ccc(C(=O)NNC(=O)CCC(=O)Nc2cc(C)on2)cc1	1.1	/	1.3	-1.6	?	/	0.7
N#CC1=C(N)SC(N)=C(C#N)C1c1cccc(O)c1	22*	-5.9	9.1	91	5%	i	0.66
COc1cc(OC)cc(-c2nnc(NC(=O)CCS(=O)(=O)c3ccc(F)cc3)o2)c1	1.2	?	0.0	-1.7	1%	i	0.59
Cc1csc2sc(-c3ccnc(SCC(=O)NCc4ccccc4)n3)c(C)c12	5.6	-2.1	/	7.1	-38%	i	/
COc1ccc(S(=O)(=O)Nc2ccc3c(c2)C(=O)N([C@@H](C)CO)C[C@@H](C)[C@H](CN(C)S(=O)(=O)c2ccc(F)cc2)OCCCC[C@H](C)O3)cc1	/	1.3&-2.9	/	-3.1	/	i	/
O=C(NCc1cccs1)c1cccc2c(-c3cccnc3)coc12	/	-2.6	/	1.7	/	i	/
Cc1nnc2sc(SCc3ccccc3Cl)nn2c1=O	3.8	-3.8	2.1	-2.4	7%	i	0.65
CCCCn1c(=O)[nH]c(=O)c2c1nc(-c1ccc(-c3ccccc3)cc1)n2C	-3.3	1.1	-376	-0.6	/	i	0.73
CC(=O)N1CCc2cc(Br)cc(S(=O)(=O)CCC(=O)N3CCN(c4ccccn4)CC3)c21	-1.0	0.6	2.0	2.0	4%	i	0.71
CC(C)CC(NS(=O)(=O)c1ccc2c(c1)oc(=O)n2C)C(=O)NC1CCCc2ccccc21 (stereo not given)	-2.0	-0.3	4.9	-3.1	0%	i	0.76
O=C(Cn1cnc2ccccc2c1=O)Nc1nnc(C2CC2)s1	2.5	/	0.6	-1.6	/	/	0.69
Cc1nc(NS(=O)(=O)c2ccccc2)sc1C(=O)N/N=C/c1ccccc1	-6.1	7.0	/	-2.6	9%	i	/
O=C(Oc1cccc2c(O)cccc12)c1ccco1	/	1.2	/	5.1	/	i	/
COc1cc(/C=C(\C#N)c2nc3ccccc3[nH]2)c([N+](=O)[O-])cc1OCc1ccccc1	8.6	/	0.8	3.3	>100µM*	/	0.76
Cc1csc(NC(CO)c2nc3ccccc3n2CCOCCO)n1 (stereo not given)	2.8	-9.7	0.2	-1.6	/	i	0.71

(cont.)
SMILES	RanGTP-Imp inh	MLL AF4-AF9 inh	UCH37 inh	HNF4A DNA FP	Vif TR-FRET	FGF22 binding	Ecoli growth
O=C(c1cnc(Cc2c[nH]c3ccccc23)c(I)c1)N1CCCCC1	/	5.5	/	-0.8	/	i	/
NC(=O)c1cc([N+](=O)[O-])ccc1NCc1cccc2ccccc12	/	5.6	1.2	1.0	/	i	0.65
Cc1ccc(S(=O)(=O)Nc2ccc(Cl)cc2O)cc1	/	0.6	/	2.3	/	i	/
CCC12CSc3nc(Cl)ccc3N1C(=O)C(=O)N2C (stereo not given)	2.4	0.3	1.1	0.2	4%	i	0.66
COc1ccc(CCNC(=O)c2cc(C3CC3)nc3c2cnn3C(C)C)cc1OC	/	8.3	0.9	4.6	1%	i	0.67
CNc1snc(C)c1C(=O)OCC(=O)c1cc(F)ccc1OC	/	-3.3	/	4.5	-9%	i	/
Cc1ccc(/C(N)=N/OC(=O)C(C)c2ccc([N+](=O)[O-])cc2)cc1 (stereo not given)	2.2	-0.4	/	-3.5	/	i	/
Cc1ccc(C(=O)Nc2ccon2)cc1S(=O)(=O)N1CCCCCC1	1.4	/	0.4	2.8	28%	/	0.72
O=C(c1ccccc1F)N(Cc1ccccc1)Cc1ccccc1	4.4	-5.6	-0.8	0.5	/	i	0.69
COc1cc(CN2CC(=O)N(c3ccc(C)c(C)c3)C2=S)cc(OC)c1OC	2.1	/	2.5	1.4	/	/	0.64
CCC(C)NC(=O)COC(=O)c1csc2c1CCCC2 (stereo not given)	1.2	/	-3.4	0.5	8%	/	0.65
C=C(C)COc1ccc2c(c1)CCC1C2CCC2(C)C(=O)C(=NO)CC12 (stereo not given)	/	-5.4	/	-0.1	-3%	i	/
CN1CCC(NC(=S)NC2CC2)CC1	-0.4	-2.2	0.8	-2.2	9%	i	0.69
CC(C)n1c(SCC(=O)NC2CCCCC2)nnc1-c1ccco1	?	-0.3	0.1	1.6	/	i	0.7
CN(C)CCNC(=O)c1ccc(COc2ccc(Cl)cc2Cl)cc1	?	/	7.4	3.0	-1%	/	0.67
COCCNS(=O)(=O)c1ccc2c(c1)n(C)c(=O)n2C	1.6	-6.4	2.3	3.7	-1%	i	0.73
COCc1cc(C)nc2sc3c(=O)oc(C)nc3c12	-0.2	/	0.4	-1.1	3%	/	0.72
CCCCN1C(=O)C(=O)NC[C@@H]1C(C)CC (stereo not given in full)	2.9	0.2	2.6	-2.9	22%	i	/
CCCCC1CCC(c2nc(-c3ccccn3)no2)CC1 (stereo not given)	-2.5	/	2.4	-4.4	0%	/	0.71
CN(C(=O)c1ccnn1C)C1CCCN(Cc2ccccc2F)C1 (stereo not given)	0.2	-0.4	2.6	-3.2	-5%	i	0.74
CCN(CC)CC(=O)Nc1c(C#N)cnn1-c1ccccc1	5.7	-0.2	2.2	2.6	/	i	0.65
Cc1cc(NC(=O)CSc2nc(=O)n(CCN(C)C)c3c2CCCC3)no1	-1.0	-0.6	3.2	0.1	0%	i	0.66
O=C(CCN1C(=O)C2CCCCC2C1=O)N1CCN(S(=O)(=O)c2cccc(F)c2)CC1 (stereo not given)	/	-1.3	-0.7	-3.5	3%	i	0.72
Cc1nc(SCc2ccccc2F)c2cnn(-c3ccccc3)c2n1	-3.5	/	-2.0	/	-3%	/	0.71
O=C1CSC(c2ccc([N+](=O)[O-])cc2)N1Cc1ccccc1 (stereo not given)	-1.8	-0.5	5.8	2.9	/	i	0.67
COc1cccc(-c2nnn(CCC(=O)O)n2)c1	-0.1	/	-1.4	-0.9	1%	/	0.69
FC(F)(F)c1ccccc1CNCc1ccncc1	?	0.9	-0.6	2.3	/	i	0.59

Exported with the structure last: entries from further up
RanGTP-Imp inh | MLL AF4-AF9 inh | UCH37 inh | HNF4A DNA FP | Vif TR-FRET | FGF22 binding | Ecoli growth | smiles
/ | 5.6 | 1.2 | 1.0 | / | i | 0.65 | NC(=O)c1cc([N+](=O)[O-])ccc1NCc1cccc2ccccc12
/ | 0.6 | / | 2.3 | / | i | / | Cc1ccc(S(=O)(=O)Nc2ccc(Cl)cc2O)cc1
2.4 | 0.3 | 1.1 | 0.2 | 4% | i | 0.66 | CCC12CSc3nc(Cl)ccc3N1C(=O)C(=O)N2C (stereo not given)
/ | 8.3 | 0.9 | 4.6 | 1% | i | 0.67 | COc1ccc(CCNC(=O)c2cc(C3CC3)nc3c2cnn3C(C)C)cc1OC
